HNF4A DNA FP: change in binding of human HNF4 alpha to DNA | 360,000 tested, 0.3% active | P41235 | activity change, % at 10 µM | HNF4a-FITC DNA binding, fluorescence polarization, 1 h; in the data active means activity change above about 30%, passing the limit was not always enough;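 further: controls were the assay level and a saturating level of protein; the project sought stronger binding though the title names inhibitors; some compounds called inactive have numbers as strong as hits; positive values seem to mean higher polarization but the record does not say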
Target sequence (P41235 whole entry, looked up): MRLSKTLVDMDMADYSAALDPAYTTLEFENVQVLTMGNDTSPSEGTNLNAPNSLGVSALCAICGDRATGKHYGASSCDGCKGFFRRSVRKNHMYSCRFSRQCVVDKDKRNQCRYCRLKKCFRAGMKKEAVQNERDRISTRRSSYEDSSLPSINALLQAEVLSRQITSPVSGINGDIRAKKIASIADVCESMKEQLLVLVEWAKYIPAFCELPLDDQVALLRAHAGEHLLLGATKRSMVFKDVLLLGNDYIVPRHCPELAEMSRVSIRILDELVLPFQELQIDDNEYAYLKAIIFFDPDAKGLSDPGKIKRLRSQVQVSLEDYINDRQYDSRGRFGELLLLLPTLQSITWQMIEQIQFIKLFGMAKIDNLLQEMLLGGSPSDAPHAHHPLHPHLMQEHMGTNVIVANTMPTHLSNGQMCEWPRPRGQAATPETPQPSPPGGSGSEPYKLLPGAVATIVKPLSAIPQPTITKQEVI
MLL AF4-AF9 inh: inhibitors of human MLL-AF4/AF9 interaction | 350,000 tested, 0.47% active | AlphaScreen, biotin-AF4 peptide binding to FLAG-AF9 | P42568 | inhibition, % at 10 µM;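 active means every replicate reaching a set inhibition limit, whatever the replicate mean, cut at about 25% in these data; inconclusive means mean inhibition reaches that limit but some replicates miss it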;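 further: 0% = plate neutral control median and 100% = total signal loss; the record names both 10 and 1 µM as test concentration; the first replicate is given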
Ecoli growth: E. coli growth inhibition; Escherichia coli growth, OD600, 23 h; active compounds read low; OD600 absorbance (test concentration not listed); 330,000 tested, 0.21% active; AID 1053175;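 active means OD600 absorbance below the run mean of sample wells minus 3.6 SD, in any replicate, cut at about 0.56 in these data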;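 further: stock transfer was 300 nL into about 60 µL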
rRNA inh HTS: inhibits bacterial ribosomal RNA function over humanized ribosomes. AID 720706. 350,000 tested, 1.6% active. E. coli WT GFP vs humanized-ribosome RFP mutants, fluorescence, 24 h; active compounds read low; DMSO median 0, no signal -100. GFP signal change (wild-type ribosome), % (test concentration not listed);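 active means significant combined selectivity score with lowered wild-type GFP, culture density cut under 30%, mutant RFP and density less affected; inactive means any of these conditions unmet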; further: one replicate is shown; some compounds called inactive have numbers as strong as hits
Vif A3G: inhibitors of Vif binding to APOBEC3G peptide, primary screen, biochemical, TR-FRET, GST-Vif 1-94, biotin-A3G peptide, dose response retest (AID 1117319); TR-FRET GST-Vif / biotin-A3G peptide binding; higher % means a stronger effect; test concentration not given here; strong numbers were not always called active; 260,000 tested, 0.57% active; inhibition, %; hits with a dose series show IC50 in µM;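 active means above the screen mean plus three standard deviations and confirmed in dose response; inconclusive means results disagree or hit not tested in dose response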;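 further: Vif residues 1-94 fused to GST binding biotinylated APOBEC3G peptide 110-148; 0% = full assay without inhibitor and 100% = GST in place of GST-Vif; retest series ran down from 100 µM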
ALR H2O2 inh: blocks human ALR sulfhydryl oxidase activity; purified ALR, DTT oxidation, H2O2 HRP-luminol luminescence; inhibition, % (no concentration beside the values); 290,000 tested, 3.8% active;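 active means mean and each replicate at 75% or more; inconclusive means only one of the two met; inactive means neither met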;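 further: stock transfer was 7.5 nL into about 7.5 µL; 0% = neutral wells and 100% = wells with inactivated enzyme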
Target sequence (P55789 whole entry, looked up): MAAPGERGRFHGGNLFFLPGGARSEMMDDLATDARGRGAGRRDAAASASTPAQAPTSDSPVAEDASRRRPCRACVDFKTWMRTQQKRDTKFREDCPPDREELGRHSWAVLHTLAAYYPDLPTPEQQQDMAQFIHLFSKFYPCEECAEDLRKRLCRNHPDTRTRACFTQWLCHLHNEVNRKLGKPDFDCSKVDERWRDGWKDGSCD
FGF22 binding: binders of recombinant human FGF22 by thermal shift; 340,000 tested, 1.5% active; calls only at 9.99 µM; Q9HCT0; AID 651658; SYPRO orange fluorescence; percent of sucrose octasulfate shift, DMSO zero;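 active means melting point raised past a set limit in the mean and every replicate; inconclusive means no clear call; three in four hits are not shown here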
Target sequence (Q9HCT0 whole entry, looked up): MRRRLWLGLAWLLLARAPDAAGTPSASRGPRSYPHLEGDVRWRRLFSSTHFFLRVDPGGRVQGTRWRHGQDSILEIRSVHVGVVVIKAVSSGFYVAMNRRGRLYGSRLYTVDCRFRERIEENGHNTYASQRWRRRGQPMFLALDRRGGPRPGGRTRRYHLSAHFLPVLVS
rRNA inh HTS OD600: further read-out of rRNA inh HTS, marked with its call; OD600 change, %; measured here: OD600 growth;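 optical density of the mix in the first replicate; 0 = DMSO median and -100 = no signal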
rRNA inh HTS RFP: second read-out of rRNA inh HTS, no call of its own (marks repeat the call); RFP signal change, %; measured here: RFP humanized mutant strains;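 first replicate; 0 = DMSO median and -100 = no signal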
An asterisk follows results filed as active; i = inactive; ? = inconclusive; . = not tested or not shown; & = joins results of further samples.

SMILES | HNF4A DNA FP | MLL AF4-AF9 inh | Ecoli growth | rRNA inh HTS | rRNA inh HTS OD600 | rRNA inh HTS RFP | Vif A3G | ALR H2O2 inh | FGF22 binding
Cc1cc([N+](=O)[O-])nn1CC(=O)c1ccccc1 | 8.1 | 6.2 | 0.66 | -2 | 3 | -3.3 | 16% | . | i
CC1(C)CC(=O)c2c(n(S(=O)(=O)c3ccccc3)c3ccc(NS(=O)(=O)c4ccccc4)cc23)C1 | 0.3 | -11 | 0.71 | 8 | 14 | 20 | . | -2 | i
Cc1cc(Cl)ccc1OCC(=O)NCCOC(=O)Nc1sc(=S)n(C)c1C | -1.5 | 4.6 | 0.69 | -7 | 5 | -3.8 | . | 14 | i
C[C@@H]1CN([C@@H](C)CO)C(=O)Cc2cc(NS(=O)(=O)c3ccccc3)ccc2O[C@@H]1CN(C)Cc1ccc(Oc2ccccc2)cc1 | . | 4.9 | . | 0 | -6 | 0.4 | . | . | i
Cc1noc(C)c1NC(=O)N(C)C[C@@H]1Oc2c(NC(=O)C3CCCCC3)cccc2C(=O)N([C@@H](C)CO)C[C@H]1C | . | -2.9 | . | 1 | 1 | -0.4 | . | . | i
CC(C)CN(C(=O)c1ccc2c(c1)OCCO2)c1c(N)n(Cc2ccccc2)c(=O)[nH]c1=O | 5.1 | 0.2 | 0.7 | 11 | 4 | -0.2 | -2% | -5 | i
CCOc1ccccc1N1CCN(CC(=O)NC(=O)NCc2ccco2)CC1 | 5.0 | 4.5 | 0.71 | -4 | 3 | 2.8 | . | 0 | i
O=C(CCCNC(=O)c1ccc(Cl)cc1)NCc1ccc(F)cc1 | 2.6 | 1.9 | . | 8 | 10 | -1.0 | . | -3 | i
Cc1ccccc1C(=O)NNC(=O)c1cccc([N+](=O)[O-])c1 | -3.9 | -0.9 | 0.64 | 8 | 6 | 0.5 | 9% | 0 | i
CC1CCN(S(=O)(=O)c2ccc(C(=O)Nc3ccccc3-c3nc4ccccc4[nH]3)cc2)CC1 | 0.6 | . | 0.74 | . | . | . | -1% | 3 | .
Cc1ccc2cc(S(=O)(=O)NCCC(=O)O)ccc2c1 | 0.0 | . | 0.69 | . | . | . | 0% | -9 | .
COc1cc(OC)cc(C(=O)NCC(=O)OCC(=O)Nc2ncc(Cl)cc2Cl)c1 | -5.1 | -0.4 | 0.72 | 6 | 2 | -1.2 | 18% | -6 | i
Cc1cccc(-c2nnc(C(C)Nc3cccc(C(=O)NC4CC4)c3)o2)c1 (stereo not drawn) | -1.9 | -1.3 | . | 9 | -9 | -2.1 | . | . | i
CO[C@@H]1CN(C)C(=O)c2cc(NC(=O)c3cc(C)on3)ccc2OC[C@@H](C)N(C(C)=O)C[C@@H]1C | . | -2.4 | . | 0 | -2 | 0.4 | . | . | i
Cc1noc(C)c1S(=O)(=O)Nc1ccc2c(c1)C(=O)N([C@H](C)CO)C[C@H](C)[C@@H](CN(C)Cc1ccc(Cl)c(Cl)c1)OCCCC[C@@H](C)O2 | . | 0.7 | . | -2 | -12 | 2.5 | . | . | i
COC(=O)c1sccc1NC(=O)Nc1ccc(F)cc1 | -0.6 | -1.1 | 0.73 | 3 | 7 | 0.0 | -3% | 2 | i
O=C(c1ccccc1)c1coc2ccc(O)c(CN3CCOCC3)c12 | -0.8 | . | 0.68 | . | . | . | -1% | 13 | .
COc1ccc(/C=N/NC(=O)c2nnn(-c3nonc3N)c2-c2cccc(OC)c2)cc1 | -3.0 | -0.1 | . | -3 | 1 | 5.3 | . | -8 | i
Cc1cc(-n2c(C)cc(C(=O)CSc3ccccn3)c2C)no1 | 1.3 | 1.4 | 0.67 | 1 | 11 | 7.2 | -8% | 3 | i
CCn1c(-c2cccc(Cl)c2)n[nH]c1=S | 0.9 | . | 0.72 | . | . | . | -7% | 48 | .
CN(O)/C=c1/ccc2c(n1)C(=O)C=CC=2 | 2.3 | . | 0.67 | . | . | . | ? | -18 | .
Cc1ccc(S(=O)(=O)Nc2ccc3c(c2)C(=O)N([C@H](C)CO)C[C@@H](C)[C@@H](CN(C)S(=O)(=O)c2c(C)noc2C)O3)cc1 | . | 2.7 | . | 0 | 1 | -0.4 | . | . | i
COc1ccc2c(c1)CO[C@@]21O[C@H](CCO)C[C@H](O)[C@H]1O | 0.9 | -0.2 | . | 10 | 11 | 5.3 | . | . | i
COc1cccc(OC)c1C(=O)Nc1ccc2c(c1)Cc1ccccc1-2 | -3.0 | -0.8 | 0.68 | -23* | -16* | 0.5* | -11% | 2 | i

Whole records, quoted from the list. Screens in order: HNF4A DNA FP, MLL AF4-AF9 inh, Ecoli growth, rRNA inh HTS, rRNA inh HTS OD600, rRNA inh HTS RFP, Vif A3G, ALR H2O2 inh, FGF22 binding
CO[C@@H]1CN(C)C(=O)c2cc(NC(=O)c3cc(C)on3)ccc2OC[C@@H](C)N(C(C)=O)C[C@@H]1C is entered as ., -2.4, ., 0, -2, 0.4, ., ., i
Cc1cc(-n2c(C)cc(C(=O)CSc3ccccn3)c2C)no1 is entered as 1.3, 1.4, 0.67, 1, 11, 7.2, -8%, 3, i
Cc1ccc(S(=O)(=O)Nc2ccc3c(c2)C(=O)N([C@H](C)CO)C[C@@H](C)[C@@H](CN(C)S(=O)(=O)c2c(C)noc2C)O3)cc1 is entered as ., 2.7, ., 0, 1, -0.4, ., ., i

Next section.
SMILES | HNF4A DNA FP | MLL AF4-AF9 inh | Ecoli growth | rRNA inh HTS | rRNA inh HTS OD600 | rRNA inh HTS RFP | Vif A3G | ALR H2O2 inh | FGF22 binding
C=CCn1c(COc2ccc(OC)cc2)nc2ccccc21 | 0.9 | 3.1 | 0.65 | -7 | -8 | -0.3 | . | -3 | i
COc1ccc(CCN2C(=O)C3C4CCC(C4=C(C)C)C3C2=O)cc1OC (stereo not drawn) | 1.1 | -7.8 | 0.73 | . | . | . | 2% | 20 | i
CSCCC(NS(=O)(=O)c1ccc(Cl)cc1)C(=O)OCc1c(Cl)cccc1Cl (stereo not drawn) | -1.3 | . | 0.7 | . | . | . | 19% | -1 | .
O=C(CC1C(=O)NCCN1Cc1ccc(Cl)c(F)c1)NC1CCC1 (stereo not drawn) | -0.8 | 1.1 | 0.64 | -5 | -4 | 0.3 | . | 1 | i
O=C(C1CC1)N1CCN=C1SCc1cccc(F)c1 | -1.5 | -6.1 | 0.73 | -1 | 2 | -1.7 | 11% | 99* | i
O=S(=O)(c1ccc2c(c1)CCCN2)N1CCCC1 | -1.8 | -1.8 | 0.71 | 2 | 7 | -0.6 | . | . | i
O=C(N[C@H]1CC[C@H](CCNS(=O)(=O)Cc2ccccc2)O[C@@H]1CO)c1ccccc1F | . | -2.9 | . | -1 | -6 | 1.1 | . | . | i
O=C(CN1CCN(S(=O)(=O)c2ccc(Cl)cc2)CC1)N1CCCC1 | 3.3 | -2.3 | 0.69 | 8 | 9 | -0.3 | 3% | . | i
N#Cc1ccsc1NC(=O)CN1CCN(c2ccccc2)CC1 | 4.4 | -0.7 | 0.71 | 12 | 9 | 2.1 | -7% | 33 | i
CC(=O)Nc1ccc2c(c1)ncn2-c1ccccc1 | 5.3 | -2.5 | 0.68 | -8 | -3 | -4.4 | -5% | -33 | i
Cc1ccc(N(C(=O)Cn2nnc(-c3ccccc3)n2)C(C(=O)NC2CCCCC2)c2ccccn2)cc1C (stereo not drawn) | 1.0 | 1.4 | 0.73 | 3 | 0 | -3.0 | 0% | -1 | i
Cc1cc(C)n2nc(SCc3cccc(F)c3)nc2n1 | -0.3 | -2.3 | 0.67 | -1 | -7 | 0.2 | -3% | -5 | i
CCOC(=O)N1CCN(C(=O)c2oc3ccc(S(=O)(=O)N4CCOCC4)cc3c2C)CC1 | -0.2 | . | 0.72 | . | . | . | 11% | -33 | .
Cc1cc(C(=O)Nc2c(C)nn(Cc3ccc(F)cc3)c2C)on1 | -1.6 | -7.8 | 0.71 | 9 | 6 | 1.5 | -1% | . | i
COc1ccc(OC)c(NC(=O)c2nnn(Cc3ccc(Br)cc3F)c2N)c1 | 5.7 | 3.1 | 0.7 | -11 | -25 | -1.7 | 1%&1% | -9 | i
O=[N+]([O-])c1ccc(CN2CCN(c3ccccc3Cl)CC2)o1 | -2.1 | 0.5 | 0.7 | 2 | -5 | 12 | 3% | -6 | i
O=C(Nc1ccc2c(c1)[C@@H]1C[C@@H](CC(=O)N3CCOCC3)O[C@H](CO)[C@@H]1O2)C1CCOCC1 | . | -1.1 | . | 1 | -1 | -1.8 | . | . | i
COc1ccc(-c2noc(CCC(=O)NC3CCN(Cc4ccccc4)CC3)n2)cc1 | -2.9 | . | 0.68 | . | . | . | 23% | -4 | .
COc1ccc(-c2csc(NC(=O)c3cccc(N4C(=O)CCC4=O)c3)n2)cc1OC | -0.1 | 1.2 | 0.68 | 9 | 4 | 32 | . | 2 | i
CCN(CC)S(=O)(=O)c1ccc(NCCCn2ccnc2)c([N+](=O)[O-])c1 | 1.2 | 0.6 | 0.65 | 1 | 8 | -1.9 | 2% | -48 | i
CC(Sc1nnc(COc2ccc(Cl)cc2)n1Cc1ccco1)C(=O)N1CCNC1=O (stereo not drawn) | -2.1 | -0.4 | 0.68 | -10 | -12 | -1.2 | -6% | . | i
COc1cc(CN2CCC(CO)(CCOc3ccccc3)CC2)cc(OC)c1OC | 1.6 | 0.9 | 0.67 | 3 | 10 | -3.2 | ? | -3 | i
CSc1ncc(Cl)c(C(=O)Nc2nnc(SC)s2)n1 | 0.9 | . | 0.71 | . | . | . | -1% | 4 | .
C[C@@H]1CN([C@@H](C)CO)C(=O)c2cc(NC(=O)c3ccncc3)ccc2O[C@@H](C)CCCCO[C@H]1CN(C)C(=O)Cc1ccccc1 | . | -3.5 | . | -3 | -2 | 1.2 | . | . | i
CCOc1ccc(CCNC(=O)CN2C(=O)c3cccnc3Oc3ccc(Cl)cc32)cc1 | 1.1 | -5.1 | 0.63 | 2 | 5 | 0.2 | -13% | -6 | i
CC(C)COC(=O)C1C2C=CC3(CN(C(C)c4ccc(Br)cc4)C(=O)C13)O2 (stereo not drawn) | 3.3 | 0.5 | 0.64 | -5 | -7 | -0.4 | 5% | -8 | .
C[C@H](CO)N1C[C@H](C)[C@H](CN(C)C(=O)Nc2ccc(C(F)(F)F)cc2)Oc2c(NC(=O)C3CCOCC3)cccc2C1=O | . | 0.8 | . | -5 | -3 | -1.0 | . | . | i
OC1CCN(Cc2cn(Cc3ccccc3)nc2-c2cc3ccccc3o2)CC1 | 1.1 | 3.7 | 0.65 | 6 | -2 | 5.3 | 22% | -3 | i
C[C@H]1CN([C@@H](C)CO)C(=O)Cc2cc(NC(=O)Nc3ccc(C(F)(F)F)cc3)ccc2O[C@@H]1CN(C)Cc1ccc(-c2ccccc2)cc1 | . | -0.9 | . | 3 | 20 | -0.7 | . | . | i
O=C(CC1NCCNC1=O)Nc1ccc([N+](=O)[O-])cc1 (stereo not drawn) | -2.8 | -13 | 0.66 | 12 | 11 | 6.1 | . | 27 | i
CO[C@@H]1CN(C)C(=O)c2cc(NC(=O)Nc3cc(F)ccc3F)ccc2OC[C@@H](C)NC[C@H]1C | . | 1.6 | . | 0 | 1 | -1.0 | . | . | i
C/C=C/Cn1c(Br)nc2c1c(=O)[nH]c(=O)n2C | -2.8 | 0.3 | 0.69 | 0 | 6 | -6.2 | -8% | 5 | i
Cc1ccc(N2C(=O)Cc3ccccc3C2=O)cc1 | -0.3 | 0.0 | 0.63 | 5 | 14 | -1.6 | . | 10 | i
CC(=O)Nc1ccc(S(=O)(=O)N2CCC(C(=O)NCCC(=O)NCc3ccncc3)CC2)cc1 | 7.5 | -0.2 | 0.69 | 3 | 9 | 5.8 | . | -1 | i

Bioassay records as filed in PubChem BioAssay.

An excerpt; the hit share may differ from the screen's.
